# Yeast UUG start: alters start codon recognition fidelity in yeast. S. cerevisiae UUG-firefly luciferase reporter, luminescence/redox ratio. activity score, % at 18.7 µM. 0.13% of 350,000 active;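 active = replicate mean at a twofold rise or more, about +100% in these data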;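 note: firefly luciferase made from a UUG start codon reports start codon fidelity; reporter light over untreated wells divided by growth signal over untreated wells; some hits fall short of that in this replicate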
# PABP FP inh: PABP-poly(A) binding inhibition; P11940; PABP-poly(A) RNA binding, fluorescence polarization; inhibition, % at 35 µM; 1% of 290,000 active; AID 2014;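 active = 50% or more with normal probe brightness, or confirmed in later tests; inconclusive = above 50% with abnormal brightness, or retests that disagree; inactive = below 50% or failed in later tests; about a fifth of its hits are not listed in these tables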;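 note: calls also rest on retests at 20 µM and on dose response follow-up; controls were probe without protein and protein plus probe with vehicle; some compounds called inactive have numbers as strong as hits; many hits fall short of the cut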
# eIF4H FP inh: inhibitors of RNA binding by human eIF4H; Q15056; eIF4H fluorescence polarization binding assay; inhibition, % at 35 µM; 0.94% of 290,000 active; AID 2012;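 active = 50% or more with normal probe brightness, or confirmed in later tests; inconclusive = above 50% with abnormal brightness, or retests that disagree; inactive = below 50% or failed in later tests; about a fifth of its hits are not listed in these tables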;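 note: calls also rest on retests at 20 µM and on dose response follow-up; 0% = protein and probe with vehicle and 100% = probe without protein; strong numbers were not always called active; many hits fall short of the cut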
# CSC inhib: cancer stem cell inhibition; cancer stem cell-like cells viability, luminescence; inhibition, % at 7.5 µM; 1.1% of 300,000 active;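 active = mean at 75% or more and at least half the replicates too; inconclusive = mean and replicates disagree; tested in HMLE shEcad cells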;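 note: 0% = median of negative and 100% = median of positive control wells; the first replicate is given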
# MT1-MMP act inh: blocks activation of human MT1-MMP | P50281 | HT1080 RFP-PRO-GFP cells, GFP/RFP ratio fluorescence, overnight; percent of plate control window, DMSO zero | GFP/RFP ratio change, % at 20 µM | 0.061% of 360,000 active | AID 651647;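 active = GFP/RFP ratio change of at least 30% with cell ATP level not reduced by more than half and red fluorescence within 50% of control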; note: strong numbers were not always called active
#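 Assay system: HT1080 cells carrying an RFP-PRO-GFP reporter | Dosing: Single dose of 20 µM compound, 1% DMSO final | Incubation: Cells overnight before dosing, compound overnight, 37 °C, 5% CO2 | Evaluation: GFP/RFP fluorescence ratio | Control set: DMSO and RFP-L50D-GFP cell wells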
# Rce1 inhib: yeast Ras-converting enzyme inhibition; Q03530; yeast membranes, quenched prenylated peptide cleavage fluorescence; calls only; 0.27% of 290,000 active; AID 2563;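 active = fall in fluorescence gain of 50% or more versus controls, with final raw signal at or below 3038400; inconclusive = same 50% fall but final raw signal above 3038400; inactive = fall in fluorescence gain under 50%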;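 note: plate controls were neutral control wells for no effect and wells lacking membranes for full effect; tested at 10 µM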
# Target sequence (Q03530 whole entry, looked up): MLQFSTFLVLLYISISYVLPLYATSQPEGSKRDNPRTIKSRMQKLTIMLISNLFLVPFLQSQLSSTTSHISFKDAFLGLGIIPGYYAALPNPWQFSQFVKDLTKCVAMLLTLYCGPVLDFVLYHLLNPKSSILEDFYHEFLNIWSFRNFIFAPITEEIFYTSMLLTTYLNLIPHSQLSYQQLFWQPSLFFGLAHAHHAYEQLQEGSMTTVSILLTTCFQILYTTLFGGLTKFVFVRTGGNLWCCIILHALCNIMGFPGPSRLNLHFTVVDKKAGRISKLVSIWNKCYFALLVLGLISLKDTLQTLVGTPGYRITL
# Env fusion inh: inhibitors of HIV Env-mediated cell fusion; HeLa-JRFL Env/CEM21 cell fusion, luciferase; inhibition, % at 12.3 µM; 1.1% of 360,000 active; AID 651610;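 active = mean replicate inhibition score of at least 50 and every replicate individually at or above 50; inconclusive = only one of the two criteria met; inactive = mean below 50 and not all replicates reaching 50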;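 note: 0% = plate neutral controls and 100% = maraviroc near 300 nM; one replicate is shown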
# MT1-MMP act inh RFP: second read-out of MT1-MMP act inh, no call of its own (marks repeat the call); RFP signal change, %; measured here: RFP expression control read;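 0 = vehicle wells; hits needed this value within 50% of zero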
# The depositor's hits bear a star; i = inactive; u = inconclusive; x = no result given; & = joins results of further samples; [ ] = another dose, or the depositor's remark.
item | structure | Yeast UUG start | PABP FP inh | eIF4H FP inh | CSC inhib | MT1-MMP act inh | MT1-MMP act inh RFP | Rce1 inhib | Env fusion inh
1 | COc1cc(Cl)c(C)cc1NC(=O)CSC1=NCCS1 | -20 | x | x | -15 | -1 | -4 | x | x
2 | COc1ccc(C(=O)N(CC2CCCO2)C(C(=O)NC2CCCC2)c2ccc(C)cc2)cc1OC (centres undefined) | x | 9 | -7 | -12 | 5 | 4 | i | -25
3 | Cc1cccnc1NC(=O)CCc1nnc2ccc(NCc3ccco3)nn12 | -15 | 12 | 21 | 3 | -2 | -2 | i | 0
4 | COc1ccc(NC(=O)c2c(Cl)cnn2C)c(C)c1 | x | -2 | -9 | -1 | 1 | 3 | i | -5
5 | O=C(COc1cccc2cccnc12)N/N=C1\SCC(=O)N1CCc1ccccc1 | x | 0 | 4 | 9 | -1 | 0 | i | 15
6 | O=C1CCC(c2ccccc2)N1C(=O)c1cccnc1 (centres undefined) | -2 | -2 | 8 | x | 0 | 3 | i | x
7 | Cc1noc(C)c1NC(=O)Nc1ccc2c(c1)C(=O)N([C@H](C)CO)C[C@H](C)[C@@H](CN(C)C(=O)NC1CCCCC1)O2 | -1&-18 | x | x | 4 | 9 | 8 | x | -6[16.7 µM]
8 | Clc1ccc(-c2nnc3cccc(Cl)n23)c(Cl)c1 | -15 | 25 | -4 | -1 | -3 | -3 | i | x
9 | CC1(C(=O)NS(=O)(=O)C2CC2)CCN(C(=O)c2ccc3ccccc3n2)C1 (centres undefined) | -13 | x | x | x | 2 | 5 | x | -8
10 | O=C(c1cc(Br)ccc1O)N1CCN(S(=O)(=O)Cc2ccccc2)CC1 | 1 | x | x | -3 | 0 | -10 | x | 9
11 | O=C(COC(=O)c1ccc(S(=O)(=O)NCc2ccco2)cc1)NCC1CCCCC1 | -5 | 25 | 30 | -9 | x | x | i | -46
12 | c1ccc(C2C3=C(CCCC3)Nc3ncnn32)cc1 (centres undefined) | -1 | 3 | 11 | 1 | -3 | 3 | i | 7
13 | O=C(CSc1nncn1-c1cccnc1)N1CCOCC1 | x | 4 | 9 | -18 | -3 | 0 | i | 7
14 | COc1cccc(CNS(=O)(=O)c2cc(-c3cc(C)no3)ccc2C(C)C)c1 | x | 9 | -12 | -10 | 1 | -1 | i | 15
15 | COc1ccc(-c2nnc(SCC(=O)Nc3cc(S(=O)(=O)N4CCCCC4)ccc3Cl)n2N)cc1 | -11 | 4 | -6 | x | 6 | 2 | i | x
16 | c1ccc2c(c1)-c1nc3ccccc3cc1C2N1CCOCC1 (centres undefined) | -5 | x | x | x | 3 | -1 | x | -5
17 | CCCS(=O)(=O)N1CCC(C(=O)NCC2CCCO2)CC1 (centres undefined) | -14 | 7 | -3 | 1 | 6 | 5 | x | x
18 | CN1c2ccccc2SC2C(c3ccccc3)=NOC21 (centres undefined) | -23 | x | x | x | 3 | 0 | x | -26
19 | COc1cc(C(=O)NCC(C)C)c([N+](=O)[O-])cc1OC | -25 | -5 | -4 | -6 | 2 | 3 | i | -37
20 | O=C(O)c1ccccc1-c1ccccc1C(=O)Nc1ccc2c(c1)[nH]c(=O)c1ccccc12 | 2 | 34 | 13 | 12 | 2 | 1 | i | -9
21 | Cc1c(/C=N/NC(=O)c2ccccc2O)c2ccccn2c1C(=O)c1ccc(F)cc1 | x | 32 | 7 | 0 | -5 | -34 | i | x
22 | Cc1ccc(S(=O)(=O)NCC(=O)OCC(=O)Nc2cccc(S(=O)(=O)NC3=NCCCCC3)c2)cc1C | 12 | 14 | -1 | -1 | -1 | -2 | i | -4
23 | O=C(Nc1nccs1)C1CCCN(S(=O)(=O)c2cccnc2)C1 (centres undefined) | -9 | -7 | 0 | -13 | 8 | 2 | i | -10
24 | CCc1ccccc1NC(=O)c1ccc2snnc2c1 | -9 | 3 | -6 | -6 | 5 | 3 | i | -6
25 | O=C(Nc1cnccn1)C1c2ccccc2Oc2ccccc21 | x | 8 | 0 | -13 | 1 | 2 | i | x
26 | CCOC(=O)c1sc(NC(=O)CSc2nc(-c3ccco3)cc(C(F)(F)F)n2)c(C(=O)OC)c1C | x | 0 | 6 | 14 | -8 | -2 | i | x
27 | CC(C)(C)c1ccc(C(=O)N2CCC(=O)N(C(CO)Cc3ccccc3)CC2)cc1 (centres undefined) | 0 | -2 | 2 | 13 | 5 | 0 | i | -218
28 | Cc1c(OCC(=O)N(C)C)ccc2c(-c3ccccc3)cc(=O)oc12 | 5 | 1 | -3 | -7 | -2 | 0 | i | -4
29 | CCC1CCCCN1C(=O)COc1cccc2c1CCN(C)C2=O (centres undefined) | x | -6 | 3 | 1 | 3 | -1 | i | 12
30 | CCc1ccc(NC(=O)CSc2ccc(-c3ccco3)nn2)cc1 | x | -2 | 20 | -3 | 2 | -5 | i | 7

# Single values from the results shown:
# O=C(c1cc(Br)ccc1O)N1CCN(S(=O)(=O)Cc2ccccc2)CC1 in CSC inhib shows -3
# CCCS(=O)(=O)N1CCC(C(=O)NCC2CCCO2)CC1 (centres undefined) in MT1-MMP act inh RFP shows 5
# CC1(C(=O)NS(=O)(=O)C2CC2)CCN(C(=O)c2ccc3ccccc3n2)C1 (centres undefined) in MT1-MMP act inh RFP shows 5

# (listing goes on)
item | structure | Yeast UUG start | PABP FP inh | eIF4H FP inh | CSC inhib | MT1-MMP act inh | MT1-MMP act inh RFP | Rce1 inhib | Env fusion inh
31 | CC(Nc1ccc(Cl)cc1)c1cc(Cl)ccc1O (centres undefined) | 6 | 2 | 0 | 37 | 2 | 0 | i | x
32 | O=C(c1cc2c(=O)n3ccccc3nc2s1)N1CCN(Cc2ccc3c(c2)OCO3)CC1 | x | -4 | 8 | -2 | -2 | 2 | i | 17
33 | CCCNCc1cc(Br)ccc1OCC(=O)NCCc1ccccc1 | x | -6 | -4 | x | -2 | 0 | i | -19
34 | CCc1nc(SCC(=O)N2CCCC2)c2c(=O)n(C)c(=O)n(C)c2n1 | 20 | -17 | -2 | -2 | 0 | 1 | i | 3
35 | O=C(c1cccs1)N1CCC(c2nc3c(nnn3Cc3cccc(Cl)c3)c(=O)[nH]2)CC1 | -7 | 4 | -1 | 2 | 6 | -3 | i | -39
36 | O=C(Nc1cccnc1)c1ccc(Cl)c(S(=O)(=O)N2CCCCC2)c1 | -3 | -15 | 2 | -9 | 3 | -14 | i | -34
37 | COc1ccc(CCN=C(N)NS(=O)(=O)c2cccs2)cc1OC | -6 | -5 | 12 | 37 | 2 | 4 | i | 1
38 | CCn1cc(C(=O)NCc2ccco2)c(=O)c2cc(S(=O)(=O)N3CCCC3)ccc21 | x | 8 | 0 | 2 | -2 | 2 | i | 19
39 | CC1(C)SC(=S)N(/N=C/c2ccc(O)cc2)C1N(O)C(=O)Nc1ccc([N+](=O)[O-])cc1 (centres undefined) | -18 | 4 | 2 | 7 | -2 | -7 | i | x
40 | COc1ccc(NC(=O)CNC(=O)c2nn(-c3ccc(OC)c(Cl)c3)c(=O)c3ccccc23)c(OC)c1 | -13 | -6 | -12 | x | 2 | 0 | i | 26
41 | COc1ccc2c3c(c(=O)oc2c1OCC(N)=O)CCCC3 | -6 | 6 | -6 | -6 | 11 | -3 | i | x
42 | COc1ccc(Nc2nc(-c3ccccc3O)nc3ccccc23)cc1 | -14 | 12 | 5 | 81* | -8 | -3 | i | -7
43 | CC1CCCC(C)N1C(=O)COC(=O)c1cc(S(=O)(=O)N2CCOCC2)ccc1Cl (centres undefined) | 5 | x | x | -9 | -1 | 0 | i | 9
44 | COc1ccc(CC(=O)NC2CCS(=O)(=O)C2)cc1 (centres undefined) | -16 | x | x | -7 | -5 | 2 | i | -9
45 | CCCc1[nH]n(-c2ccc([N+](=O)[O-])cc2)c(=O)c1C=NCCCn1ccnc1 | -9 | -1 | 2 | -17 | 4 | -1 | i | 3
46 | CCN(Cc1ccccc1)CC(O)COc1ccccc1 (centres undefined) | -24 | 8 | -8 | 5 | 0 | -1 | i | -80
47 | Cc1cc(C)cc(NC(=O)COC(=O)c2cc(C)oc2C)c1 | x | 5 | 7 | -16 | 1 | 1 | i | 1
48 | CC1=CC(=C(C#N)c2nc3ccccc3s2)C=C(C)N1c1ccc(F)cc1 | -9 | -15 | u | 37 | -27 | -6 | i | -28
49 | CCCCNC(=O)C1(C)CCCCN1Cc1ccccc1-c1ccccc1 (centres undefined) | 20 | x | x | x | -2 | -13 | x | 45
50 | O=C(O)c1ccc(NC2=C(n3nnc4ccccc43)C(=O)c3ccccc3C2=O)cc1 | x | 6 | -6 | 6 | 14 | 0 | i | 6
51 | COc1ccc(N(CC(=O)N2CCN(c3ccccc3F)CC2)S(=O)(=O)c2ccc(C)cc2)cc1 | -5 | 14 | 7 | -1 | 4 | -1 | i | 16
52 | CN(C)c1nc(SCCOC(=O)COc2ccc(Cl)cc2Cl)nc(N(C)C)n1 | -12 | 6 | 2 | 6 | 5 | 3 | x | -29
53 | N#Cc1ccc(C(CC(=O)O)N2Cc3ccccc3C2=O)cc1 (centres undefined) | 0 | -2 | 0 | -3 | 1 | 1 | i | 6

# Fetched by structure from the entries so far (two):
item | structure | Yeast UUG start | PABP FP inh | eIF4H FP inh | CSC inhib | MT1-MMP act inh | MT1-MMP act inh RFP | Rce1 inhib | Env fusion inh
35 | O=C(c1cccs1)N1CCC(c2nc3c(nnn3Cc3cccc(Cl)c3)c(=O)[nH]2)CC1 | -7 | 4 | -1 | 2 | 6 | -3 | i | -39
45 | CCCc1[nH]n(-c2ccc([N+](=O)[O-])cc2)c(=O)c1C=NCCCn1ccnc1 | -9 | -1 | 2 | -17 | 4 | -1 | i | 3

# Record cards, as listed above:
# CCCNCc1cc(Br)ccc1OCC(=O)NCCc1ccccc1 is listed with Yeast UUG start = x; PABP FP inh = -6; eIF4H FP inh = -4; CSC inhib = x; MT1-MMP act inh = -2; MT1-MMP act inh RFP = 0; Rce1 inhib = i; Env fusion inh = -19
# O=C(Nc1nccs1)C1CCCN(S(=O)(=O)c2cccnc2)C1 (centres undefined) is listed with Yeast UUG start = -9; PABP FP inh = -7; eIF4H FP inh = 0; CSC inhib = -13; MT1-MMP act inh = 8; MT1-MMP act inh RFP = 2; Rce1 inhib = i; Env fusion inh = -10
# CC1=CC(=C(C#N)c2nc3ccccc3s2)C=C(C)N1c1ccc(F)cc1 is listed with Yeast UUG start = -9; PABP FP inh = -15; eIF4H FP inh = u; CSC inhib = 37; MT1-MMP act inh = -27; MT1-MMP act inh RFP = -6; Rce1 inhib = i; Env fusion inh = -28

# Screens as filed in PubChem BioAssay.

# The list is partial; rates above refer to the full screens.
